Screens as filed in PubChem BioAssay.
Arbovirus inh = arbovirus infection inhibition; inhibition, % at 10 µM; 200,000 compounds, 0.37% hits; arbovirus infection cell-based antiviral screen; AID 1251;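 active = inhibition from about 30%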;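 also: bluetongue infection of BSR cells; cell survival read as ATP light after 72 h; 0% = infected wells without compound and 100% = uninfected wells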
Mtb growth = M. tuberculosis H37Rv growth inhibitors, H37Rv strain (AID 1626); M. tuberculosis H37Rv growth inhibition; higher % means a stronger effect; inhibition, % at 10 µM, or IC50 in µM where a hit was titrated; 220,000 compounds, 0.95% hits;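 active = confirmed in a dose series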;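 also: bacteria incubated seven days before Alamar blue readout; 0% = bacteria only wells and 100% = bacteria with antibiotic wells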
Mtb betalactam = beta-lactam sensitization of Mtb H37Rv | 330,000 compounds, 0.27% hits | M. tuberculosis H37Rv growth with meropenem, percent inhibition; hits of this screen are not shown here | inhibition, % at 25 µM;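 active = about 74% or more and at least 40 points above the plate without the antibiotic, then above 30% in a dose series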;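 also: growth measured after seven days incubation then overnight dye step; 0% = bacteria only wells and 100% = bacteria with antibiotic; twin plates without the antibiotic show which effects depend on it; some results filed as inactive read as strong as hits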
RecA splice inh = Mtb RecA intein splicing inhibition. P9WHJ3. cell-free RecA intein splicing, fluorescence. inhibition, %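 (about 9 µM by stock and volumes)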. 290,000 compounds, 0.75% hits; in the data active = inhibition above about 30%;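 also: 0% = vehicle wells and 100% = reference inhibitor control wells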
Target sequence (P9WHJ3 whole entry, looked up, canonical isoform): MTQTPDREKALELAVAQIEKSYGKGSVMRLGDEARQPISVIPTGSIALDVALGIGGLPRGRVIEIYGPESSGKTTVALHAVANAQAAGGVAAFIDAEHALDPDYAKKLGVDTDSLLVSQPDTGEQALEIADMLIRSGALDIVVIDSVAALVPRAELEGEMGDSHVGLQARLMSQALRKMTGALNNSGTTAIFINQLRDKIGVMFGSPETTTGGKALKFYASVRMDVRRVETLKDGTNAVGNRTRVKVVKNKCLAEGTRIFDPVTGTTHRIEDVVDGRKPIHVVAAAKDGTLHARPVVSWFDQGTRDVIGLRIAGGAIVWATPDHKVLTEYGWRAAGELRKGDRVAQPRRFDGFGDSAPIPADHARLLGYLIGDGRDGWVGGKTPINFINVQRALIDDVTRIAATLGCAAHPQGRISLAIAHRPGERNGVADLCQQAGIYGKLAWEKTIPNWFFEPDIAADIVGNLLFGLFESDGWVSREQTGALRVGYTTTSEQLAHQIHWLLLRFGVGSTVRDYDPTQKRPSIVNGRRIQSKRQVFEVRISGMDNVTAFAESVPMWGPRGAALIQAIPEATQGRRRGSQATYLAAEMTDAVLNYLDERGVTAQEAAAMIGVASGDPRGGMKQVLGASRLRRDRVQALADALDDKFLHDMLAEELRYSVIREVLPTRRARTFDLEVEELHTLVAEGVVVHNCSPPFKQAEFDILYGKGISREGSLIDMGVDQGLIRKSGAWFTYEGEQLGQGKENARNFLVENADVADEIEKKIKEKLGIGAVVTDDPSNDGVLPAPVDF
YopH PTP inh = blocks Yersinia enterocolitica YopH tyrosine phosphatase | fluorescence Ex485/Em525 | inhibition, %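 (about 10 µM by stock and volumes)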 | 140,000 compounds, 0.16% hits | AID 898;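 active = inhibition of 50% or more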;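 also: controls were vehicle for no effect and minimum signal wells for full effect; inactives centre near -20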
Arbovirus inh repeat = recorded beside Arbovirus inh, whose call it bears; inhibition, %; measured here: 10K subset replicate screen; many hits read low in the repeat;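 first of two repeat runs on a subset; 0% = infected and 100% = uninfected wells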
* hit, by the source's call; · = not tested or not shown. These rows are one share of the data; rates above refer to the full screens.

SMILES	Arbovirus inh	Mtb growth	Mtb betalactam	RecA splice inh	YopH PTP inh	others
Nc1[nH]c(=S)nc2nc(-c3ccccc3)c(-c3ccccc3)nc12	-6	6%	2	-3.2	·
COCCOC(=O)c1c(C)nc(SCC(=O)Nc2ccc(OC)cc2)c(C#N)c1-c1ccco1	4	0%	-4	4.6	-12
COc1ccc(CNC(=O)C(C)NCc2ccc(S(N)(=O)=O)cc2)cc1 (centres undefined)	·	·	3	-0.9	·
O=C(NCC1CCCO1)c1ccc(OC2CCN(C(=O)C3CC3)CC2)cc1 (centres undefined)	0	-7%	-8	-1.6	·
CCNC(=O)NC(=O)C(C)OC(=O)[C@H](C)NS(=O)(=O)c1c(C)c(C)cc(C)c1C (some centres undefined)	·	-14%	-7	0.8	·
CCN(CC(=O)Nc1cccc(C(C)=O)c1)S(=O)(=O)c1ccccc1	-1	3%	-1	1.1	·
Cc1ccc(NC(=O)CSC(C)c2nc3ccccc3c(=O)[nH]2)cc1 (centres undefined)	·	·	4	-0.8	·
O=C(NCCc1ccc(Cl)cc1)Nc1ccc(F)cc1	-1	11%	-2	-5.1	·
CN(C)c1nc(N)nc(CSc2ccccn2)n1	9	-1%	-7	·	-17
CCOC(=O)C(NCc1ccco1)(NC(=O)c1ccc(OC)cc1)C(F)(F)F (centres undefined)	8	-1%	-1	-0.5	-29
C=CCN1C(=O)NC(=O)/C(=C/c2cnc(SC)nc2)C1=O	-1	-4%	-6	1.0	-20
COc1ccccc1CC(=O)N1CCOCC1	·	·	-2	-1.8	·
CCN(CC)C(=O)C(=O)Nc1ccc(OCc2ccccc2)cc1	-16	6%	-5	-2.2	·
Cc1ccsc1/C=N/NC(=O)c1nnn(-c2nonc2N)c1C(C)C	·	·	4	0.2	·
O=C(CSc1nc(-c2ccccc2)cs1)Nc1cccc([N+](=O)[O-])c1	20	8%	3	1.8	-6
COCCCNC(=O)/C(C#N)=C1\N=C(NC(=O)c2cccs2)c2ccccc21	·	-11%	-7	0.0	·
O=C(NCCC1=CCCCC1)c1ccc(-n2cncn2)c([N+](=O)[O-])c1	·	·	-8	-3.6	·
CN1CCN(C(c2ccccn2)c2cc(Cl)c3cccnc3c2O)CC1 (centres undefined)	-15	-5%	5	4.7	·
Brc1ccc(C2=NC(Cc3ccccc3)CO2)cc1 (centres undefined)	4	3%	-10	3.4	-12
OCCNCc1cccc2ccccc12	3	4%	1	-3.5	·
c1ccc(-n2c(-c3ccncc3)nnc2N2CCOCC2)cc1	7	-2%	-4	·	5
CC/C(=C\C=C\[C@@H]1C=C[C@@H]2CCC[C@H]2[C@@H]1C(=O)c1ccc[nH]1)[C@@H]1O[C@@H]([C@@H](C)C(=O)O)CC[C@@H]1C	-12	-5%	-3	9.1	8
Cn1c(Cc2ccccc2)nnc1SCCC(=O)Nc1ccccc1	1	1%	-4	0.7	6
O=C(CSc1nnc(CCCN2C(=O)c3cccc4cccc(c34)C2=O)n1-c1ccccc1)NCCCO	5	-1%	-5	3.3	-14
C/C(=N\Nc1ccccn1)c1cccs1	-3	4%	-3	-0.4	·
O=C(O)C1CCN(Cc2cccnc2)CC1	13	4%	0	0.2	·
CN(C)C(=O)Oc1cccc2c(OC(=O)N(C)C)cccc12	-2	-10%	-2	-2.7	-19
Cc1ccsc1C(=O)N1CCN(S(=O)(=O)c2cccs2)CC1	6	2%	-8	0.1	·
O=C(CSc1nnc(-c2c[nH]c3ccccc23)n1CC1CCCO1)Nc1ccc2c(c1)OCCO2 (centres undefined)	0	1%	-4	1.9	-20
CCOC(=O)N1CCN(C(=O)CS(=O)Cc2nc(-c3cccc(C)c3)oc2C)CC1 (centres undefined)	15	-2%	-7	0.9	·	Arbovirus inh repeat=-3
C/C(CC(=O)Nc1ccccn1)=N\NC(=O)c1ccccc1O	·	·	-2	-0.1	·
Cc1ccc(NC(=O)N2CCC(=O)N2)cc1	7	-3%	-2	-3.1	-21
CCC(NC(=O)COC(=O)C1CC2CCCC(C1)C2=O)c1ccc(Br)cc1 (centres undefined)	·	·	4	-2.4	·
Cc1ccc(N2C(=S)SC3CS(=O)(=O)CC32)cc1 (centres undefined)	0	-7%	5	0.3	·
Cc1nn(CC(=O)N2c3ccccc3NC(=O)C2(C)C)c(C)c1[N+](=O)[O-]	3	1%	15	-2.5	·
COc1ccccc1NC(=S)N(CCN(C)C)C(C)c1ccncc1 (centres undefined)	·	-4%	-3	-1.1	·
CC(=O)c1cccc(NC(=O)C2=CC(c3ccco3)=NS(=O)(=O)N2C)c1	·	·	-1	-11	·
O=c1[nH]c2ccccc2n1CCCOc1ccccc1	-2	5%	-3	1.6	-5
Cc1cccc(C(=O)Oc2ccccc2/C=N/Nc2ccc([N+](=O)[O-])cc2)c1	-8	13%	-7	·	-33
Cc1ccc(NC(=O)Cn2cnc3c(oc4nc5c(cc43)COC(C)(C)C5)c2=O)cc1	-9	-2%	4	-2.2	6
COc1cccc(CNCCOCCO)c1OC	4	-3%	-19	2.1	-35
CCN1C(=O)c2ccc(C(=O)Nc3ccc4c(c3)OCO4)cc2C1=O	·	·	-4	0.3	·
Cc1ccc(-c2nc(SCC(=O)N(C)C3CCS(=O)(=O)C3)[nH]c2-c2ccc(C)cc2)cc1 (centres undefined)	-32	5%	-1	-7.5	-24
O=C(CCN1CCN(C(=O)c2ccccc2)CC1)c1ccc(Br)cc1	·	·	86	8.7	·
CCOC(=O)c1nn(-c2ccc(F)cc2)c(C)c1C(C)=O	-4	-9%	-9	-2.1	-18
Cc1cc(C)cc(N=c2c([N+](=O)[O-])nn(-c3ccc(Cl)cc3)n2O)c1	1	48%	17	-0.3	·
O=C(CCN1CCN(c2ccc(F)cc2)CC1)Nc1ccccc1F	6	-2%	15	0.2	14
Cc1c(C(=O)O)cnc2c([N+](=O)[O-])cnn12	-1	10%	-7	2.2	·
O=C(NCc1ccccn1)c1ccccc1Cl	2	4%	-12	0.8	-9
CCON1C(=O)C(C)(C)N(OCC)C(=O)C1(C)C	·	-1%	-4	-2.0	·
COC(=O)[C@H]1CCCN1C(=O)Nc1cccc(Oc2c(F)c(F)c(F)c(F)c2F)c1	-3	·	-5	·	-51
O=C1CC(N2CCN(c3ccc(F)cc3)CC2)C(=O)N1Cc1ccc(N2CCCC2=O)cc1 (centres undefined)	11	-11%	·	-0.8	-12
C=CCc1ccccc1OCC(O)CNC(=O)c1ccccc1C(=O)O (centres undefined)	·	-2%	-5	4.4	·
Cc1ccc2c(c1)Oc1ccccc1C=C2C(=O)O	-4	3%	9	-0.7	·
Cc1c(C)n(CCC#N)c2ccccc12	9	-7%	0	-2.1	19
CC(NC(=O)CSc1nc(=O)cc(N)n1CCc1ccccc1)c1ccccc1 (centres undefined)	-1	-3%	-2	·	-19
O=C(COc1ccccc1F)c1ccc(O)cc1O	-1	-3%	-16	0.4	-10	Arbovirus inh repeat=2
CCN(CC(=O)Nc1ccccc1C(F)(F)F)C(=O)C1CC(=O)N(Cc2ccccc2)C1 (centres undefined)	·	·	1	-1.9	·
Cc1ccc(CNC(=O)COC(=O)c2cc3c(s2)CCC(C)C3)cc1 (centres undefined)	-1	13%	5	0.0	-49
CSc1nc2ccc(NC(=O)c3ccc(=O)[nH]c3)cc2s1	·	·	74	0.1	·

New compounds follow.
SMILES	Arbovirus inh	Mtb growth	Mtb betalactam	RecA splice inh	YopH PTP inh	others
COc1ccc(C(=O)Nc2ccccc2C(=O)NCCN2CCOCC2)cc1	7	-3%	0	2.2	-11
O=[N+]([O-])c1ccc(CP(=O)(c2ccccc2)c2ccccc2)cc1	·	·	1	3.8	·
COc1ccc(-c2cc(C(F)(F)F)c(C#N)c(SCC(=O)O)n2)cc1	3	-7%	-8	·	·
Cc1cc(C)n(CCc2nc(-c3cccs3)cs2)n1	6	6%	-6	6.6	15
CCS(=O)(=O)c1ccc(O)c(NC(=O)COc2ccccc2)c1	11	·	-4	-5.1	-20
COc1ccc(NC(=O)N(Cc2cc3cc(OC)c(OC)cc3[nH]c2=O)CC2CCCO2)cc1 (centres undefined)	-1	-2%	5	4.1	·
COC(=O)Cn1c(CN2CCc3ccccc3C2)nc2c1c(=O)n(C)c(=O)n2C	-3	-9%	-3	4.1	9	Arbovirus inh repeat=-1
COC(=O)c1nnn(-c2cccc(Cl)c2)c1C(=O)OC	·	-5%	-2	1.3	·
CCC1(C(=O)O)NC(c2cccc(OC)c2O)C2C(=O)N(c3ccccc3)C(=O)C21 (centres undefined)	3	-14%	3	-8.1	-11	Arbovirus inh repeat=0
O=C(O)CC1(CC(=O)NCc2ccc(-c3cccs3)cc2)CCCCC1	·	8%	-1	3.2	·
OC(COc1ccc(C2C=CCC2)cc1)CN1CCCCC1 (centres undefined)	-22	3%	0	1.1	-44	Arbovirus inh repeat=-17
COc1ccc(N=C2CCS(=O)(=O)c3sccc32)cc1	-12	54µM*	91	2.4	·
COc1ccc(Cn2c(=S)[nH]c3ccccc32)cc1	-3	-1%	1	0.0	·
N/C(=N\c1nc(CSc2ccc(Cl)cc2)cc(=O)[nH]1)Nc1cccc2ccccc12	-5	·	-4	-5.6	-24
COC(=O)C1CCN(C(=O)c2cc3ccccc3oc2=O)CC1	3	-7%	-8	0.6	-8
COc1ccc(Cl)cc1C(=O)Nc1ccc2nc3n(c(=O)c2c1)CCCC3	·	·	-2	-0.8	·
O=C(Nc1cccnc1)c1cccc(-c2cc3ccccc3oc2=O)c1	-3	6%	-2	0.2	·
Cc1ccc(C(=O)NC(NC(=S)Nc2ccc(S(N)(=O)=O)cc2)C(Cl)(Cl)Cl)cc1 (centres undefined)	0	1%	3	4.6	-5
Cc1ccc(-c2nc3c(c(=O)[nH]c(=O)n3Cc3ccccc3)n2C)o1	15	-1%	·	·	·
CC1(C)OC(=O)C(=CNc2ccc(F)cc2)C(=O)O1	-1	0%	-1	-2.3	-30
Cc1cccc(C(=O)NCCCn2ccnc2)c1C	·	·	-5	1.9	·
COC(=O)CSc1nc2ncccc2[nH]1	4	2%	0	-2.6	-20
CC(NC(=O)C1C(=O)N(CCO)C2(C)CC1c1ccccc1O2)c1ccccc1 (centres undefined)	-2	-8%	-3	1.2	-26
CC1CCC(N(C)C2CCN(C)CC2)CC1 (centres undefined)	·	·	10	0.0	·

In the list so far, 10 have fluorine.
SMILES	Arbovirus inh	Mtb growth	Mtb betalactam	RecA splice inh	YopH PTP inh	others
O=C(NCCc1ccc(Cl)cc1)Nc1ccc(F)cc1	-1	11%	-2	-5.1	·
CCOC(=O)C(NCc1ccco1)(NC(=O)c1ccc(OC)cc1)C(F)(F)F (centres undefined)	8	-1%	-1	-0.5	-29
CCOC(=O)c1nn(-c2ccc(F)cc2)c(C)c1C(C)=O	-4	-9%	-9	-2.1	-18
O=C(CCN1CCN(c2ccc(F)cc2)CC1)Nc1ccccc1F	6	-2%	15	0.2	14
COC(=O)[C@H]1CCCN1C(=O)Nc1cccc(Oc2c(F)c(F)c(F)c(F)c2F)c1	-3	·	-5	·	-51
O=C1CC(N2CCN(c3ccc(F)cc3)CC2)C(=O)N1Cc1ccc(N2CCCC2=O)cc1 (centres undefined)	11	-11%	·	-0.8	-12
O=C(COc1ccccc1F)c1ccc(O)cc1O	-1	-3%	-16	0.4	-10	Arbovirus inh repeat=2
CCN(CC(=O)Nc1ccccc1C(F)(F)F)C(=O)C1CC(=O)N(Cc2ccccc2)C1 (centres undefined)	·	·	1	-1.9	·
COc1ccc(-c2cc(C(F)(F)F)c(C#N)c(SCC(=O)O)n2)cc1	3	-7%	-8	·	·
CC1(C)OC(=O)C(=CNc2ccc(F)cc2)C(=O)O1	-1	0%	-1	-2.3	-30

Remaining list, next part
SMILES	Arbovirus inh	Mtb growth	Mtb betalactam	RecA splice inh	YopH PTP inh	others
Cc1ccc(CNS(=O)(=O)CCNC(=O)c2ccccc2)cc1	·	·	-6	-1.1	·
Cc1ccc(S(=O)(=O)N(C)C)cc1NC(=O)COC(=O)Cc1n[nH]c(=O)c2ccccc12	·	·	-5	0.9	·
COc1ccccc1NS(=O)(=O)c1cccc(C(=O)NN=C2CCCC2)c1	-1	5%	-10	0.7	·
COc1ccc(/C=C/C(=O)c2cc(F)ccc2OC(=O)c2ccccc2C)cc1OC	6	12%	4	9.2	-25
COc1ccc(S(=O)(=O)Nc2ccccn2)cc1OC	-2	-5%	4	-0.2	1
O=C(N/N=C/c1ccc(OC(=O)c2ccccc2Cl)cc1)c1cc(O)cc(O)c1	·	·	3	14	·
O=C(COc1ccc2ccc(=O)oc2c1)Nc1ccc2c(c1)OCCO2	0	-5%	1	1.2	-23
O=C(CNS(=O)(=O)c1cccs1)N1CCC2(CC1)OCCO2	3	4%	4	1.9	-11
S=c1[nH]nc(-c2ccncc2)n1/N=C/C=C/c1ccco1	13	1%	-1	0.2	·
CCc1ccc(CNC(=O)CCn2ccc3cc(S(=O)(=O)N4CCCC4)ccc32)cc1	·	·	14	-2.3	·
Cc1ccc(-c2cccc(OC(=O)c3ccccc3F)c2)cc1	-18	·	86	1.7	-27
Cc1ccc(CN2CCN(/N=C/C(Br)=C\c3ccccc3)CC2)cc1	·	6%	-2	4.0	·
